# Compound activity: PubChem, National Center for Advancing Translational Sciences (NCATS)
# VACV mCherry inh: qHTS for Stage-Specific Inhibitors of Vaccinia Orthopoxvirus: mCherry Reporter Primary qHTS; 0.63% of 310,000 active; Vaccinia virus mCherry reporter infection, fluorescence; about a quarter of the inactives have no number; Potency, µM (titrated, usually from 36.5 µM), without a hit: at the highest dose activity change, negative = inhibition, most hits filed as inhibitors; AID 720579, 2013; active = well fitted inhibition curve with a large enough effect; inconclusive = small, poorly fitted or top-dose-only effect; inactive = no such curve, though single readings can be large or run the other way; tested in A549 cells; note: nearly all actives have a fitted effect of over 35% in size; inactives centre near -10
# VACV Venus inh: qHTS for Stage-Specific Inhibitors of Vaccinia Orthopoxvirus: Venus Reporter Primary qHTS. Vaccinia virus Venus reporter expression, fluorescence. 0.46% of 330,000 active. Potency, µM (highest dose often 36.5 µM), inactives show at the highest dose activity change, negative = inhibition, usual class: inhibitors; active means well fitted inhibition curve with a large enough effect; inconclusive means small, poorly fitted or top-dose-only effect; inactive means no such curve, though single readings can be large or run the other way; tested in A549 cells; note: nearly all actives have a fitted effect of over 30% in size; inactives centre near -10
# * hit, by the source's call; i = inactive; ? = inconclusive; . = no result given; & = joins results of further samples; [ ] = dose if it differs, or a comment. % is set by controls: 0 for no effect and ±100 for the full control effect; potency is the fitted concentration of half-maximal effect. Outcome played no part in choosing rows. Share with any hit: about 0.88%.
Structure	VACV mCherry inh	VACV Venus inh
COCCN(CC(=O)Nc1cccc(C)c1C)C(=O)c1cc2ccccc2cc1OC	i	-5.1%
Cc1cc(/C=C2/NC(=O)NC2=O)c(C)n1-c1sc2c(c1C#N)CCCC2	?	-19.9%
O=C(NC1CCN(Cc2ccccc2)CC1)c1cccc(OC(F)F)c1	i	-20.3%
O=c1c2[nH]c3ccc(F)cc3c2nc2n1CCS2	-12.2%	-14.7%
CCN(CCCNC(=O)C1CCN(S(=O)(=O)c2cnc[nH]2)CC1)c1cccc(C)c1	-15.7%	-8.4%
O=C(NCc1ccc(Cl)c(Cl)c1)C1CCCC1	i	-11.1%
O=C(CN(Cc1ccccc1)C(=O)c1csnn1)NCCc1ccccc1	9.6%	-1.3%
CCCNS(=O)(=O)c1ccc(OCC(=O)NCCC2=CCCCC2)cc1	-23.3%	-6.9%

# Following part.
Structure	VACV mCherry inh	VACV Venus inh
O=C(/C(=C(\O)c1ccccc1)c1nc2ccccc2[nH]1)c1ccccc1	i	-9.0%
CC(C)(C)[C@H]1COC(=O)[C@@H](NC(=O)OCC2c3ccccc3-c3ccccc32)C/C=C\C[C@@H](CC(=O)N[C@@H](CO)Cc2ccccc2)C(=O)N1	?	-24.4%
Cc1ccc(OCC(=O)N2CCN(C3=NS(=O)(=O)c4ccccc43)CC2)cc1	i	-10.3%
Cc1cc(C)c(S(=O)(=O)c2ccccc2)c(OC(=O)c2c(F)cccc2F)n1	-25.9%	-14.0%
Cc1cccc(CCNC(=O)c2cc(S(=O)(=O)N3CCOCC3)cn2C)c1	-17.5%	?
CCCCn1c(N)c(N(CCOC)C(=O)c2oc3ccc(OCC)cc3c2C)c(=O)[nH]c1=O	-15.9%	-10.0%
Cc1c(C(=O)N(C)C)sc2c1c(=O)n(-c1ccc(Cl)c(Cl)c1)c(=O)n2CC(=O)N1CCCCC1C (centres undefined)	-9.7%	-6.3%
Cc1c(N=Cc2ccc(Cl)o2)c(=O)n(-c2ccccc2)n1C	i	-11.1%

# Going on with the list:
Structure	VACV mCherry inh	VACV Venus inh
CCCc1nc2ccc([N+](=O)[O-])cc2[nH]1	-10.5%	-2.6%
O=C(Nc1cccc(S(=O)(=O)NC2=NCCC2)c1)C1CC(=O)N(c2ccc3c(c2)OCCO3)C1 (centres undefined)	-13.1%	-6.4%
COc1ccc(CC(N)c2csc(Nc3ccc(C(=O)c4ccccc4)cc3)n2)cc1 (centres undefined)	-23.2%	-19.2%
COc1ccc(NC(=O)C2C3C=CC4(CN(Cc5cccnc5)C(=O)C24)O3)c(OC)c1 (centres undefined)	2.4%	3.8%
O=C(CN1C(=O)COc2ccc(S(=O)(=O)N3CCCC3)cc21)NCc1ccccn1	2.6%	-5.2%
COc1cc(OC)c(OC)cc1/C=C1\C=Cc2ccccc21	-21.7%	-20.4%
CCCCn1c(SCc2cccc([N+](=O)[O-])c2)nc2ccsc2c1=O	?	-3.9%
COc1cc(-c2csc(CCn3nc(C)cc3C)n2)cc(OC)c1OC	-8.0%	-6.4%

# (list continues)
Structure	VACV mCherry inh	VACV Venus inh
CCCNC(=O)c1cc(C2CCCCN2C(=O)CCc2ccccc2)on1 (centres undefined)	4.1%	0.5%
O=c1c2ccccc2oc2ccccc12	-4.6%	-2.6%
COC(=O)c1ccc(Cn2cnc3c(N)ncnc32)cc1	5.3%	10.7%
COc1cccc(C(O)c2nc(-c3cccc(C(C)C)c3)cs2)c1 (centres undefined)	-9.3%	-2.3%
Cc1nc(SCC(=O)NCc2ccco2)c2oc3ccccc3c2n1	.	-22.0%
O=S1(=O)CC(O)C(N(CCO)C(=S)Nc2ccccc2)C1 (centres undefined)	i[7.34 µM]	-2.5%[7.34 µM]
CCOC(=O)c1cnc2c(Cl)cc(Cl)cc2c1NCCOCCO	-10.1%	0.0%
N#CCSc1nnc2c(Cl)cc(Cl)cn12	-1.3%	-10.8%

# (cont.)
Structure	VACV mCherry inh	VACV Venus inh
CCOC(=O)C1=C(C)N(C)C(=S)NC1c1ccc(Cl)cc1Cl (centres undefined)	-5.7%	-24.7%
CCc1cc(SC#N)cc(C)c1NC(=O)CCl	?	?
CCOCCc1nn2c(=O)cc(COC(=O)c3ccc4c(c3)OCO4)nc2s1	-3.0%	4.1%
O=C(COC(=O)c1ccc(OC(F)F)cc1)NCCNC(=O)COC(=O)c1ccc(OC(F)F)cc1	i	-15.7%
Fc1ccc(-n2nnnc2-c2ccccc2Cl)cc1	-1.2%	-4.1%
Clc1ccc(-c2noc(CSc3nnc(Cc4cccs4)n3-c3ccccc3)n2)cc1	-27.2%	-27.6%
CCc1cccc(C)c1NC(=O)c1cccnc1	i	-11.7%
CCCCN(CC)CCNC(=O)c1cn(-c2ccc(Cl)cc2)c(=O)c2ccccc12	i	-5.5%

# Reprinted from the entries so far for reference:
Structure	VACV mCherry inh	VACV Venus inh
COc1cc(OC)c(OC)cc1/C=C1\C=Cc2ccccc21	-21.7%	-20.4%
CCCCn1c(SCc2cccc([N+](=O)[O-])c2)nc2ccsc2c1=O	?	-3.9%
COc1cc(-c2csc(CCn3nc(C)cc3C)n2)cc(OC)c1OC	-8.0%	-6.4%
CCCNC(=O)c1cc(C2CCCCN2C(=O)CCc2ccccc2)on1 (centres undefined)	4.1%	0.5%
O=c1c2ccccc2oc2ccccc12	-4.6%	-2.6%
COC(=O)c1ccc(Cn2cnc3c(N)ncnc32)cc1	5.3%	10.7%
COc1cccc(C(O)c2nc(-c3cccc(C(C)C)c3)cs2)c1 (centres undefined)	-9.3%	-2.3%
Cc1nc(SCC(=O)NCc2ccco2)c2oc3ccccc3c2n1	.	-22.0%
O=S1(=O)CC(O)C(N(CCO)C(=S)Nc2ccccc2)C1 (centres undefined)	i[7.34 µM]	-2.5%[7.34 µM]
CCOC(=O)c1cnc2c(Cl)cc(Cl)cc2c1NCCOCCO	-10.1%	0.0%
N#CCSc1nnc2c(Cl)cc(Cl)cn12	-1.3%	-10.8%
CCOC(=O)C1=C(C)N(C)C(=S)NC1c1ccc(Cl)cc1Cl (centres undefined)	-5.7%	-24.7%
CCc1cc(SC#N)cc(C)c1NC(=O)CCl	?	?
CCOCCc1nn2c(=O)cc(COC(=O)c3ccc4c(c3)OCO4)nc2s1	-3.0%	4.1%
O=C(COC(=O)c1ccc(OC(F)F)cc1)NCCNC(=O)COC(=O)c1ccc(OC(F)F)cc1	i	-15.7%
Fc1ccc(-n2nnnc2-c2ccccc2Cl)cc1	-1.2%	-4.1%
Clc1ccc(-c2noc(CSc3nnc(Cc4cccs4)n3-c3ccccc3)n2)cc1	-27.2%	-27.6%
CCc1cccc(C)c1NC(=O)c1cccnc1	i	-11.7%
CCCCN(CC)CCNC(=O)c1cn(-c2ccc(Cl)cc2)c(=O)c2ccccc12	i	-5.5%

# 2 consecutive compounds already listed, for reference:
Structure	VACV mCherry inh	VACV Venus inh
CCOC(=O)C1=C(C)N(C)C(=S)NC1c1ccc(Cl)cc1Cl (centres undefined)	-5.7%	-24.7%
CCc1cc(SC#N)cc(C)c1NC(=O)CCl	?	?

# Additional records:
Structure	VACV mCherry inh	VACV Venus inh
COc1ccc(-c2nc(C#N)c(N3CCC(C)CC3)o2)cc1	4.8%	0.5%
COc1ccc(-c2csc(Cc3nnc4n3CCCCC4)n2)cc1OC	-16.0%	-12.3%
O=C(NCCCN1CCN(c2ccccc2F)CC1)Nc1ccc(F)cc1	.	?
Cc1ccc(NC(=O)Nc2cccnc2)cc1	-20.5%	-13.4%
Cc1ccc(-n2nc(C)c3c(C)c(CCC(=O)NCc4ccc(Cl)cc4)c(C)nc32)cc1	-26.1%	-20.4%
COc1ccc(-c2cnc3nc[nH]c(=O)c3n2)cc1	-13.9%	0.2%
CCCN1CCN(CCCNC(=O)c2ccc(CS(=O)c3ccc(OC)cc3)o2)CC1 (centres undefined)	-1.1%&-4.0%	-6.9%&-8.4%
COc1ccc(-c2noc(C3CCCN(C(=O)c4ccccc4C)C3)n2)cc1 (centres undefined)	-17.0%	-9.6%

# (more compounds)
Structure	VACV mCherry inh	VACV Venus inh
Fc1cc(Br)ccc1Nc1c2c(nc3nc(-c4cccs4)nn13)CCCC2	?	?
Cc1cc2c(cc1S(=O)(=O)Nc1cccc(Cl)c1C)n(C)c(=O)c(=O)n2C	-8.0%	-7.5%
Cc1ccc(NN=C2C(=O)OC(C)(C)OC2=O)c(C)c1	-2.4%	-11.7%
CN(C)S(=O)(=O)c1cc(NC(=O)COC(=O)Cc2ccccc2)ccc1Cl	-7.4%	-5.9%
COCCNC(=O)c1ccc2c(c1)N(Cc1c(F)cccc1Cl)C(=O)c1ccccc1S2	-12.7%	-8.3%
Cc1ccc(C2C3=C(CC(C)(C)CC3=O)NC3=C2C(=O)CC(C)(C)C3)o1	.	-5.5%
OC(COCc1ccc2c(c1)OCO2)CN1CCC(Cc2ccccc2)CC1 (centres undefined)	-6.5%	-16.7%
O=c1[nH]n(-c2ncnc3c2cnn3-c2ccccc2)c(=O)c2ccccc12	-5.7%	1.3%

# The list goes on:
Structure	VACV mCherry inh	VACV Venus inh
O=C1OCC(O)=C1Cc1ccccc1	-10.9%	11.9%
O=S(=O)(c1ccc(Br)c2nsnc12)N1CCOCC1	1.0%	1.4%
CC(C)(C)OC(=O)N1CCC[C@H]1c1nnc(SCc2ccccc2Cl)o1	.	?
Cc1ccc(-c2nc(N)sc2-c2ccccc2)cc1C	?	-28.9%
COc1ccc(CC(=O)OCC(=O)NCc2ccco2)cc1OC	-6.2%	-10.0%
Cc1ccccc1C(=O)NC(CC(C)C)C(=O)Nc1cccc(S(=O)(=O)N(C)C)c1 (centres undefined)	-20.4%	-2.6%
COc1ccc(OCC(=O)Nc2ccc(Cl)cc2C(=O)c2ccccc2)cc1	-5.6%	-4.7%
CC(OC(=O)CCc1cc(C(C)(C)C)c(O)c(C(C)(C)C)c1)C(=O)NC1CC1 (centres undefined)	12.6µM*	-18.2%

# Later entries.
Molecule	VACV mCherry inh	VACV Venus inh
CC1=CC(C)C2C(=O)N(c3ccccc3)NC(=O)C2C1 (centres undefined)	-3.9%	-9.2%
O=C(Nc1ccc(CN2CCCCC2)cc1)Nc1ccc(Br)cc1Cl	-2.9%	-26.2%
CN(CC(=O)NCc1ccc2c(c1)OCO2)S(=O)(=O)c1ccc(Br)s1	.	-12.7%
CNc1ccccc(-c2ccc3ccccc3n2)c1=O	i	-2.9%
CC1=C(C(=O)Nc2ccc(Cl)cc2)C(c2cccs2)n2nc(SCc3cccc(C)c3)nc2N1 (centres undefined)	-8.6%	-4.2%
CCOC(=O)c1c(C)[nH]c(C)c1S(=O)(=O)N1CCC(C(=O)Nc2ccc(OC)c(OC)c2)CC1	-10.4%	-1.3%
Cc1ccc(-c2ccc(C(=O)Nc3ccccc3)o2)c2ccccc12	-3.7%	-21.1%
CC(C)(C)S(=O)N1Cc2cc(CO)ccc2[C@@H]1CCO (some centres undefined)	i	-1.4%
O=C(c1ccc(N2CCOCC2)nc1)N1CCCCC1	-10.3%	-16.0%
COCCNC(=S)N/N=C(\C)c1cccc(OC)c1	-4.7%	-3.2%
CCOC(=O)c1cc(OC(=O)c2ccccc2F)n(-c2ccccc2)n1	1.6%	10.2%
O=Nc1ccc(NOC(=O)c2ccccc2Br)cc1	?	-11.1%
O=C(O)CCCNC1=NCCC1	.	-11.9%
O=C(Nc1ccc2oc(-c3ccncc3)nc2c1)c1ccco1	-6.1%	16.0%
Cc1ccccc1C(=O)Nc1nc(-c2ccc(Br)cc2)ns1	?	?
O=C(Nc1ccccc1)OCc1cc(-c2ccc(Cl)cc2)on1	-0.8%	-7.7%
CC(C)(C)/C=N/NC(=O)CNC(=O)c1ccc2c(c1)OCCO2	i	-14.3%
COc1ccc2[nH]cc(CCNc3nc(-c4ccccc4CN(C)C)nc4ccccc34)c2c1	8.2%	0.0%
Cc1ccc(/C=N/NC(=O)c2ccncc2)s1	i	-2.9%
Cc1ccc(NC(=S)Nc2ccc(OC(F)F)c(Cl)c2)cc1F	i	-19.6%

# (list continues)
Molecule	VACV mCherry inh	VACV Venus inh
COc1cccc(CN2CCN(Cc3ccccc3C(F)(F)F)CC2)c1	?	-16.7%
C=CCN(CC=C)C(=O)COn1nnc2ccc(S(=O)(=O)N3CCOCC3)cc21	-2.6%	-9.0%
CCOCCc1nn2c(=O)cc(COC(=O)c3ccccc3NC(=O)c3ccc(C)cc3)nc2s1	-9.4%	-13.2%
Cc1ccc(S(=O)(=O)Nc2ccc3c(c2)C(=O)N([C@H](C)CO)C[C@H](C)[C@@H](CN(C)C(=O)Nc2ccc(C(F)(F)F)cc2)O3)cc1	-17.7%	-25.3%
Cc1ccc(S(=O)(=O)Nc2cccc(C(=O)NCc3ccccn3)c2)cc1F	i	-16.9%
CN(C)C(=O)c1ccc(NC(=O)CSc2nnc(-c3ccc4c(c3)OCO4)o2)cc1	-11.1%	-9.3%
O=C(Nc1cccc(-c2ccc(N3CCOCC3)nn2)c1)c1ccc(Cl)cc1	-5.1%	-18.1%
CC(=O)N1CCN2C(=O)C1CCCC(=O)c1cc(C(C)C)ccc12 (centres undefined)	.	-12.1%
